# Screening results from PubChem BioAssay.
# PK Bst: pyruvate kinase (B. stearothermophilus) modulation | partly purified Bacillus stearothermophilus pyruvate kinase, luminescence ATP production; ribose 5-phosphate activator present at AC10 | Potency, µM | AID 361 | actives 1.2% (n = 51,000); in the data active means potency below about 11 µM; inconclusive means mostly about 12 µM to 25 µM; inactive means weaker than that;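 the screen sought inhibitors and activators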;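 note: potency is the fitted concentration of half-maximal effect; scaled between full activation by ribose 5 phosphate and full inhibition by luteolin; about four in five hits inhibit and the cells do not say which; series up to 57 µM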
# YjeE inh: displaces an ADP probe from E. coli YjeE (TsaE); purified YjeE, fluorescence polarisation of a bound ADP probe; Potency, µM; actives 0.05% (n = 71,000); P0AF67; AID 605; active = well fitted falling curve; inconclusive = weaker or top-dose-only fall, or a rising curve; inactive = flat or poorly fitted curve;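 note: top concentration of the series not given in the record; excess ADP was the control for the full effect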
#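 Fluorescence polarization of a BODIPY Texas Red–ADP probe (2 uM) bound to purified YjeE (10 uM) was read after 15 min room-temperature incubation with compounds. Loss of polarization marks inhibitors; ADP serves as titrated control.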
# Starred values were filed as active, the others as inactive; i = inactive; u = inconclusive; x = not tested or not shown. This is a subset. The share of hits here may be higher or lower than overall.
smiles | PK Bst | YjeE inh
COC(=O)CSc1ccc2nnc(-c3ccc(F)cc3)n2n1 | x | i
COc1ccc(C(F)(F)F)cc1NC(=O)c1nc2nc(C)cc(C(F)F)n2n1 | >57 | i
CCOC(=O)c1ccc(-c2n[nH]c(=O)c3ccccc23)cc1 | >57 | i
Cc1ccc(-n2c(N)c(C(=O)N3CCOCC3)sc2=S)c(C)c1 | >57 | i
CCOC(=O)C1=C(C)NC(C)=C(C(=O)OC)[C@H]1c1cccc([N+](=O)[O-])c1 | x | i
COc1ccccc1N1C(=O)CC(Nc2ccc(N3CCOCC3)cc2)C1=O (stereo not given) | >57 | i
CCn1c(COc2ccccc2C)nnc1SCC(=O)NC1CCCC1 | >57 | i
N#CCCn1c(SCC(=O)NCC2CCCO2)nc2ccccc21 (stereo not given) | >57 | i
CCOC(=O)c1ccc(NC(=O)CSc2nnc(CNC(=O)c3c(F)cccc3Cl)o2)cc1 | >57 | i
CC1(C)NC(=O)N(CC(O)CN2CCOCC2)C1=O (stereo not given) | >57 | i
CCOC(=O)C(C)Oc1cccc2c(=O)n(CC(=O)NCc3ccc4c(c3)OCO4)ccc12 (stereo not given) | x | i
Cc1ccc2c(c1)nnn2C1CCN(CC(=O)NCCc2ccccc2)CC1 | >57 | i
N#Cc1cccc(-c2nc3cnc(N4CCNCC4)nc3n(C3CC3)c2=O)c1 | x | i
CCCn1c(=O)c(C(=O)Nc2nnc(CC)s2)c(O)c2ccccc21 | >57 | i
O=C1N(CN2C(=O)C3(OCCO3)c3ccccc32)c2ccccc2C12OCCO2 | >57 | i
Cc1c(C(=O)N2CCCCC2)sc(NC(=O)C2CC2)c1C#N | >57 | i
Cn1c(SCC(=O)N2CCOCC2)nnc1-c1cnccn1 | >57 | i
COC(=O)COc1ccc2oc(=O)cc(C)c2c1 | >57 | i
CC(C)(C)c1ccc(OCC(=O)NCc2ccco2)c(Br)c1 | >57 | i
COC(=O)Nc1ccc(C)cc1NC(=O)OC | >57 | i
O=C(CN1CCOc2ccccc21)NC1CCCCCCC1 | x | i
c1ccc(N(c2ccccc2)c2nc(-n3ccnc3)nc(-n3ccnc3)n2)cc1 | >57 | i
c1ccn2cc(CSc3nnc4ccccn34)nc2c1 | >57 | i
COc1ccc(C2c3c(-c4cc(Cl)c(C)cc4O)n[nH]c3C(=O)N2Cc2cccnc2)cc1OC (stereo not given) | >57 | i
Cc1ccc(C)c(NC(=O)Cn2nnc(C(=O)Nc3c(C)cccc3C)c2N)c1 | >57 | i
Cc1cc(Nc2ccc3c(c2)OCCO3)n2nc(C)nc2n1 | x | i
CN(C)c1ncc2nc(-c3ccccc3)c(=O)n(Cc3cccs3)c2n1 | x | i
COc1ccc2c(CC(=O)Nc3ccc(OC)c(NS(=O)(=O)c4ccc(F)cc4)c3)coc2c1 | >57 | i
CCc1nnc(NC(=O)CSc2nnc(-c3c[nH]c4ccccc34)n2CCOC)s1 | >57 | i
C[C@@H](CN(C)C)CN1c2ccccc2CCc2ccccc21 | x | i
COc1ccc2c(C=Nc3c(C)n(C)n(-c4ccccc4)c3=O)c(O)n(Cc3ccco3)c(=O)c2c1 | x | i
CN1C(=O)Cc2cc(S(=O)(=O)N3CCOCC3)ccc21 | >57 | i
O=c1nc(-c2ccccc2)n(-c2ccccc2)c2ncccc12 | >57 | i
CCOC(=O)C1CCN(C(=O)CCc2nc3ccccc3[nH]2)CC1 | >57 | i
CCCc1nc2c(sc3nc4c(cc32)COC(C)(C)C4)c(=O)n1Cc1ccco1 | >57 | i
CC(C)C(C(=O)Nc1ncn[nH]1)N1C(=O)c2ccccc2C1=O (stereo not given) | >25.6 | x
CCc1nnc(NC(=O)Cn2ccc(C(F)(F)F)n2)s1 | >57 | i
CC(=O)N1CCc2cc(Br)cc(S(=O)(=O)NCc3ccccn3)c21 | >57 | i
CC(=O)N(c1c(C)n(C)n(-c2ccccc2)c1=O)C1(C(=O)NC2CCCC2)CCCCC1 | >57 | i
CCSc1nnc2c(n1)OC(C)(C)Nc1ccccc1-2 | x | i
CCOC(=O)SC1=N/C(=C\c2ccc(N(C)C)cc2)C(=O)S1 | >57 | i
O=C(NCc1ccccc1Cl)C1CCN(S(=O)(=O)N2CCC3(CC2)OCCO3)CC1 | >57 | i
Nc1cccc(-n2nncc2-c2ccc(Cl)cc2)c1 | >57 | i
Cc1ccccc1S(=O)(=O)Cc1ccc(C(=O)NCCN2CCCCC2C)o1 (stereo not given) | >57 | i
Cc1nn2c(-c3cccc(NC(=O)CSc4nc5ccccc5o4)c3)nnc2c2ccccc12 | >57 | i
COCCNc1ncnc2ccc(-c3cccc(NS(C)(=O)=O)c3)cc12 | x | i
O=C(CN1CCOCC1)Nc1cccc(Cl)c1Cl | >57 | i
COC(=O)c1cccc(OCC(O)Cn2cnc3cc(C)c(C)cc32)c1 (stereo not given) | >57 | i
CC1CN(C(=O)N2c3ccccc3Sc3ccccc32)C(C)CC1=O (stereo not given) | >57 | i
CCN1CCCC1CNC(=O)c1csc2c1CCCC2 (stereo not given) | >57 | i

# (continued)
smiles | PK Bst | YjeE inh
COc1ccc(OC)c(N(CC(=O)Nc2ccccc2)S(C)(=O)=O)c1 | >57 | i
CC(=O)N(CCc1ccccc1C)Cc1cc2cc3c(cc2[nH]c1=O)OCO3 | >57 | i
CCOC(=O)c1c(N)sc(C(=O)Nc2ccc3c(c2)OCO3)c1C | 1.03* | i
Cc1nc2ccccn2c1/C(O)=C1\C(=O)C(=O)N(CCCN(C)C)C1c1ccc(F)cc1 (stereo not given) | x | i
c1ccc(-n2c(-c3ccco3)nnc2N2CCOCC2)cc1 | >57 | i
Cn1cnc2c(N3CCCCC3)nccc21 | >57 | i
Cc1cc(Cl)ccc1OCC(=O)Nc1nc(N)nc(N)n1 | x | i
CCc1nnc2sc(-c3cc(-c4ccccc4)nc4ccccc34)nn12 | >57 | i
COc1ccc(S(=O)(=O)N2Cc3ccccc3CC2C(=O)O)cc1OC (stereo not given) | x | i
CCC(=O)Oc1ccc(/C(CC)=C(\CC)c2ccc(OC(=O)CC)cc2)cc1 | >11.4 | x
Cc1cccc(-c2nc(CS(=O)CC(=O)N3CCc4ccccc4C3)c(C)o2)c1 (stereo not given) | x | i
COc1ccc(C2=NOC(C(=O)N3CCOCC3)C2)cc1OC (stereo not given) | x | i
Cc1ccc(-c2nnn(CC(=O)N(c3ccccc3F)C(C(=O)NC3CCCC3)c3ccco3)n2)o1 (stereo not given) | >57 | i
CC1(C)Cc2c(C#N)c(NCc3ccco3)nc(-c3ccco3)c2CO1 | >25.6 | x
CC1CC(C)CN(C(=O)COc2ccc(-c3nnco3)cc2)C1 (stereo not given) | >57 | i
COc1ccc(OCC(O)CNCc2ccco2)cc1 (stereo not given) | x | i
COC(=O)NCc1cc2cc(Cl)ccc2[nH]1 | >57 | i
Cc1cccc(-n2nc3c(c2NC(=O)c2ccc(S(=O)(=O)N4CCOCC4)cc2)CSC3)c1C | >57 | i
Cc1ccc(S(=O)(=O)n2nc(OC(=O)c3cccs3)cc2N)cc1 | >57 | i
O=C(c1ccc(Cn2cc(Cl)cn2)o1)N1CCN(Cc2ccc3c(c2)OCO3)CC1 | >57 | i
CC1(C)NC(=O)N(CN2C(=O)NC(C)(C)C2=O)C1=O | >57 | i
C=CCn1c(SCC#N)nc2ccccc2c1=O | >57 | i
Cc1oc2cc3oc(=O)c4c(c3cc2c1C)CCC4 | >57 | i
N#CCCCCN1c2cccc3cccc(c23)S1(=O)=O | 7.94* | i
COc1cccc(NC(=O)[C@@H]2CCCN2C(=O)C2CCN(S(=O)(=O)c3ccc(C)cc3)CC2)c1 | >11.4 | i
CSC1(SC2=NCCN2)SC2(NCCN2)S1 | x | i
O=C(c1nc2ccc([N+](=O)[O-])cc2[nH]c1=O)[C@@H](O)c1ccc2c(c1)OCO2 | x | i
c1ccc2c(c1)CNC1(CCCCC1)C2 | >57 | i
CCOc1ccccc1C1C(C(=O)Nc2ccccc2OC)=C(C)Nc2nnnn21 (stereo not given) | >57 | i
COc1ccc(-c2nnc(SCC(=O)N3CCc4ccccc4C3)o2)cc1 | u | i
O=C(COc1ccc(S(=O)(=O)NC2CCCCC2)cc1)NCc1ccccn1 | >57 | i
COc1ccc(NC(=O)c2ccccc2Cl)cc1NC(=O)CN1CCOCC1 | >57 | i
N#Cc1ccccc1Cn1c(=O)n(Cc2ccc(C(=O)NCc3ccco3)cc2)c(=O)c2sccc21 | x | i
CCC(=O)N1CCN=C1SCc1ccc(F)cc1 | x | i
CCOC(=O)N1CCN(S(=O)(=O)c2ccc(C(=O)Nc3nc4ccc(F)cc4s3)cc2)CC1 | >57 | i
C=Cc1ccccc1Cl | x | i
CCOC(=O)N1CCN(C(=O)CCCOc2ccccc2)CC1 | >57 | i
OCc1nc2ccccc2n1CC(O)Cn1ccc2ccccc21 (stereo not given) | >57 | i
Cc1nonc1NC(=O)CSc1ccc(-c2ccccc2)nn1 | >57 | i
COc1ccc(CCNC(=O)Cn2c(=O)oc3ccccc32)cc1OC | >57 | i
CCOC(=O)C(NC=O)(NC(C)(C)C)C(=O)OCC | >25.6 | x
Fc1ccccc1-c1nc(NCCCN2CCOCC2)c2ccccc2n1 | >25.6 | x
CCCOCC(C)O (stereo not given) | x | i
Cc1cccc(N2CCN(C(=O)c3ccc(NC(=O)C4CCCO4)cc3)CC2C)c1 (stereo not given) | >57 | i
O=C(C1COc2ccccc2O1)N1CCc2ccccc21 (stereo not given) | x | i
Cn1c(Cn2c(=O)sc3ccccc32)nnc1SCC(=O)Nc1ccc(F)cc1 | x | i
CCn1c(Cn2nnc(-c3ccccc3)n2)nnc1SCC(=O)Nc1cccc(C(C)=O)c1 | >57 | i
Cc1ccc(-c2cn3nc(C)c(C)nc3n2)cc1 | 5.54* | i
COc1cccc(C2CC(c3c(Cl)cccc3Cl)n3nc(N)nc3N2)c1 (stereo not given) | x | i
CC(C)CCN1C(=O)c2ccc(C(=O)OCn3nnc4ccccc4c3=O)cc2C1=O | >57 | i

# Reformatted with two lines to a compound: part of the list above.
# The line under a structure holds: PK Bst | YjeE inh
Fc1ccccc1-c1nc(NCCCN2CCOCC2)c2ccccc2n1
  >25.6 | x
Cn1c(Cn2c(=O)sc3ccccc32)nnc1SCC(=O)Nc1ccc(F)cc1
  x | i
O=C(C1COc2ccccc2O1)N1CCc2ccccc21 (stereo not given)
  x | i

# Going on with the list.
smiles | PK Bst | YjeE inh
CCc1ccccc1NC(=O)CSc1nc2c(c(-c3ccco3)c1C#N)CCCC2 | >57 | i
C=CCC1c2cccc(C(=O)O)c2C(=O)N1c1cccc(C)c1 (stereo not given) | >57 | i
COc1ccccc1NC(=O)CN(Cc1ccco1)C(=O)c1cccs1 | >57 | i
CCOC(=O)N1CCN(C(=O)COc2ccc(Br)cc2)CC1 | x | i
CCCCC12CN3CC(C)(CN(C1)C31C(=O)N(C)c3ccc(C)cc31)C2=O (stereo not given) | >57 | i
C[C@@H](C(=O)Nc1ccc2ccccc2c1)[C@@H]1C[C@@]1(C)[C@@H](NC(=O)c1ccncc1Cl)c1ccccc1 | x | i
COc1cccc(N2CCCn3c2nc2c3c(=O)n(CCN3CCOCC3)c(=O)n2C)c1 | >57 | i
CCOC(=O)C1CCN(c2ncnc3c2cnn3-c2ccc(OC)cc2)CC1 | i | x
CCN1CCN(Cc2cc(=O)oc3ccc(Cl)cc23)CC1 | >57 | i
CC(=O)CC(C)(C)n1nnc(-c2ccccc2)n1 | >57 | i
Oc1ccccc1-c1cc(-c2ccc3c(c2)OCCO3)n[nH]1 | 1.86* | i
O=c1c2ccccc2oc2nc(C3CCCCC3)n(Cc3ccco3)c(=O)c12 | >57 | i
Cn1c(=O)[nH]c(=O)c2c1nc(NCCCn1ccnc1)n2Cc1ccccc1 | >57 | i
COc1cccc(CN2CCN(CC(=O)Nc3ccccc3Cl)CC2)c1 | >57 | i
CS(=O)(=O)Nc1ccc(N2CCCCC2)c(Cl)c1 | >57 | i
COC(=O)c1ccc(C)c(NC(=O)Cn2cnc3ccccc3c2=O)c1 | >57 | i
CCN(CC)S(=O)(=O)c1cccc2nsnc12 | i | i
CCN(CC)CCNC(=O)CS(=O)Cc1nc(-c2ccccc2Cl)oc1C (stereo not given) | >57 | i
O=C(COc1ccc(F)cc1)NC1CC1 | >57 | i
Cc1ccc2c(c1)N(CC(=O)N1CCCc3ccccc31)C(=O)C(C)O2 (stereo not given) | >57 | i

# Random excerpt: 5 entries already listed, in no set order.
smiles | PK Bst | YjeE inh
Cn1c(=O)[nH]c(=O)c2c1nc(NCCCn1ccnc1)n2Cc1ccccc1 | >57 | i
O=C(COc1ccc(F)cc1)NC1CC1 | >57 | i
O=c1c2ccccc2oc2nc(C3CCCCC3)n(Cc3ccco3)c(=O)c12 | >57 | i
COC(=O)c1ccc(C)c(NC(=O)Cn2cnc3ccccc3c2=O)c1 | >57 | i
Cc1ccc2c(c1)N(CC(=O)N1CCCc3ccccc31)C(=O)C(C)O2 (stereo not given) | >57 | i

# New compounds follow:
smiles | PK Bst | YjeE inh
CCC(=O)N(CCCN(C)C)c1nc(-c2cc(OC)ccc2OC)cs1 | >57 | i
COc1cc(C(=O)Nc2nc(-c3cccs3)cs2)cc(OC)c1OC | i | i
CC(C)c1cc(C(=O)NCc2cccnc2)no1 | >57 | i
COCCNC(=O)Cn1c(=O)n(CCC(=O)NCCc2ccccc2)c(=O)c2ccccc21 | >57 | i
COc1ccc(C(=O)NCc2cccnc2)cc1C(=O)NCc1cccnc1 | x | i
